SARS PLP yeast: inhibitors of SARS-CoV papain-like protease in yeast | S. cerevisiae expressing SARS-CoV PLpro, growth rescue; control for the full effect not named in the record | Potency, µM (titrated, usually from 32.9 µM), for the others: at the top dose activity, positive = growth rescue | actives 0.19% (n = 330,000) | AID 485353; active means well fitted rising curve with a large enough effect; inconclusive means small, poorly fitted or top-dose-only effect; inactive means no such curve, though single readings can be large or run the other way; also: 0% is about no effect; nearly all actives have a fitted effect of over 55% in size; growth read by luminescence after 48 h
NS1 inh: blocks influenza NS1 protein function | S. cerevisiae slowed by influenza A NS1, growth recovery by OD600 | Potency, µM (titrated, usually from 46.1 µM), for the others: at the top dose activity, positive = more growth | actives 0.4% (n = 270,000) | AID 2326; active means well fitted rising curve with a large enough effect; inconclusive means small, poorly fitted or top-dose-only effect; inactive means no such curve, though single readings can be large or run the other way; also: nearly all actives have a fitted effect of over 50% in size
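Compounds were scored for reversing the slow growth caused by influenza A NS1 in S. cerevisiae, measured by optical density at 600 nm. Assay medium contained 2% galactose at pH 6.0; NS1-free yeast of the same strain were the positive control.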
StopGo reporter: lowers the luciferase signal of an FMDV 2A StopGo reporter | human cells with a luciferase reporter of 2A StopGo recoding; control for the full effect not named in the record | Potency, µM (highest dose often 57.9 µM), without a hit: at the top dose signal change, negative = less light | actives 1.2% (n = 410,000) | AID 1159524; active = well fitted falling curve with a large enough effect; inconclusive = small, poorly fitted or top-dose-only effect; inactive = no such curve, though single readings can be large or run the other way; tested in HEK293T cells; also: % is scaled to controls: 0 for no effect and ±100 for the full control effect; nearly all actives have a fitted effect of over 45% in size; luciferase light after 4 h
Lassa entry inh: inhibitors of Lassa virus binding or cell entry; Lassa virus pseudotype entry inhibition, cell reporter; control for the full effect not named in the record; Potency, µM (titrated, usually from 37.9 µM), for inactives: at the top dose activity change, negative = inhibition, usual class: inhibitors; actives 1.2% (n = 300,000); AID 540256; active means well fitted inhibition curve with a large enough effect; inconclusive means small, poorly fitted or top-dose-only effect, or effect the other way; inactive means flat fitted curve, though single readings scatter; tested in HEK293 cells; also: % is scaled to controls: 0 for no effect and ±100 for the full control effect; nearly all actives have a fitted effect of over 50% in size; luciferase read-out
Cruzain inh noDet: cruzain (T. cruzi) inhibition without detergent | P25779 | purified cruzain, Z-FR-AMC fluorescence, no detergent | Potency, µM, inactives show max response, negative = inhibition, most hits filed as inhibitors | actives 2.3% (n = 200,000);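 also: plate controls were enzyme without inhibitor for no effect and buffer without enzyme for full effect; nearly all actives have a fitted effect of over 40% in size; top concentration of the series not given in the record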
Target sequence (P25779 123-467 limits assumed): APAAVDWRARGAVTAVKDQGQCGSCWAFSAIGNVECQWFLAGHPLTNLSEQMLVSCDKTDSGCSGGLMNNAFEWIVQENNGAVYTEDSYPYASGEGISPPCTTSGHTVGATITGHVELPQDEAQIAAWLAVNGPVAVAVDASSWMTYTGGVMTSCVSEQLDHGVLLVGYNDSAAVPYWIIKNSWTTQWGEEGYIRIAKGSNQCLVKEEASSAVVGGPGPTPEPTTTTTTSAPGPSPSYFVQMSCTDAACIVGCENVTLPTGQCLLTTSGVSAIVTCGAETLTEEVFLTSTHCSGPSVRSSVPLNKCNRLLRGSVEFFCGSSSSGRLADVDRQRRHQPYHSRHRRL
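Detergent-free condition (0.00005% Triton X-100) in acetate buffer pH 5.5 with DTT. 1.5 nM enzyme and compound were pre-mixed 15 min, then 2 uM Z-FR-AMC substrate added; reaction progress from fluorescence change between first and third reads (60 s).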
MARV entry inh: inhibitors of Marburg virus binding or cell entry; Potency, µM (top dose mostly 37.8 µM), without a hit: at the top dose activity change, negative = inhibition, actives largely listed as inhibitors; actives 1.8% (n = 300,000); AID 540276; Marburg virus pseudotyped entry inhibition, cell reporter; control for the full effect not named in the record; about a third of the inactives were read at about 46 µM; active = well fitted inhibition curve with a large enough effect; inconclusive = small, poorly fitted or top-dose-only effect, or effect the other way; inactive = flat fitted curve, though single readings scatter; tested in HEK293 cells; about a fifth of its hits are not listed in these tables; also: % is scaled to controls: 0 for no effect and ±100 for the full control effect; luciferase read-out
RE007 growth inh: less growth of the S. pombe RE007 Vpr strain; S. pombe RE007 Vpr strain, BacTiter-Glo ATP luminescence, 24 h; control for the full effect not named in the record; Potency, µM (series often up to 92.2 µM), for the others: at the top dose activity change, negative = less growth; actives 0.21% (n = 360,000); AID 651644; active = well fitted falling curve with a large enough effect; inconclusive = small, poorly fitted or top-dose-only effect; inactive = no such curve, though single readings can be large or run the other way;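 also: % is scaled to controls: 0 for no effect and ±100 for the full control effect; nearly all actives have a fitted effect of over 50% in size; the assay follows cell death caused by Vpr and the record does not say whether a fall means rescue or toxicity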
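Fission yeast strain RE007, carrying one chromosomally integrated HIV-1 vpr copy, was seeded at OD 0.01 in PMG+AL medium with 23 nL pinned compound. After 24 h at 30 °C and 99% humidity, viability was read by BacTiter-Glo luminescence.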
Cruzain inh Det: cruzain (T. cruzi) inhibition with detergent. P25779. purified cruzain, Z-FR-AMC fluorescence, 0.01% Triton. Potency, µM, for inactives: max response, negative = inhibition, usual class: inhibitors. actives 0.43% (n = 200,000). AID 1478;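 also: plate controls were neutral wells for no effect and buffer without enzyme for full effect; nearly all actives have a fitted effect of over 40% in size; top concentration of the series not given in the record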
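Read-out: AMC fluorescence (360 nm excitation, 450 nm emission), four reads over 2 min, first-to-third difference used. Conditions: cruzain 1.5 nM, Z-FR-AMC 2 uM, pH 5.5 acetate, 5 mM DTT, 0.01% Triton X-100.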
Active calls of the source: *; u = inconclusive; x = not tested or not shown; [ ] = another dose, or the depositor's remark. Unless noted, calls follow the shape of the dose curve; as a rule, active = well fitted curve in the direction sought with a large enough effect; inconclusive = small, poorly fitted or top-dose-only effect, or another doubt; inactive = no such curve, though single readings can be large; an effect the other way counts as inactive or inconclusive. Potency is read from the fitted curve at half-maximal effect.

SMILES	SARS PLP yeast	NS1 inh	StopGo reporter	Lassa entry inh	Cruzain inh noDet	MARV entry inh	RE007 growth inh	Cruzain inh Det
COC(=O)c1c(NC(=O)c2nc(SCc3cccc(C)c3)ncc2Cl)sc2c1CCCC2	x	x	-1%	9%[46.1 µM]	-6%	-3%[46.1 µM]	x	-0.8%
CCCCNC(=O)N1CCN(C(c2ccccc2)c2ccccc2)CC1	0%	-38%	-16%	u	x	-11%	-16%	x
Cc1occc1C(=O)N/N=C/C=C\c1ccccc1[N+](=O)[O-]	0%	-5%	26%	5%	x	26%[46.1 µM]	-9%	x
CCOC(=O)CN1C=C(c2ccc3ccccc3n2)C(C[N+](=O)[O-])c2ccccc21 (stereo not given)	-2%	1%	21%	9%	25µM*	2%	2%	-3.7%
Cc1cccc(NC(=O)C2CCN(S(C)(=O)=O)CC2)c1C	13%	8%	-6%	-10%[46.1 µM]	x	4%[46.1 µM]	-8%	x
O=C(NCCC1=CCCCC1)C1CCN(c2nc3ccccc3o2)CC1	10%	0%	-6%	-4%	11%	-9%	4%	14%
COc1ccc(NC(=O)CSc2nc(N3CCCCC3)nc(N3CCCCC3)n2)cc1	u	3%	2%	-22%	-6%	-25%	6%	4.8%
Cc1c(C)c(C)c(C(=O)C2CCN(c3ccc([N+](=O)[O-])cn3)CC2)c(C)c1C	0%	2%	u	4%	x	-4%	12%	x
Cc1ccc(-c2nc3ccccc3[nH]2)cc1NC(=O)c1ccco1	-21%	-138%	20%	4%	-7%	7%	-4%	-1.8%
Cn1ccc(C(=O)OCC(=O)c2ccccc2)n1	-8%	1%	42%[activator]	18%	3%	4%	-8%	11%
COc1ccc(S(=O)(=O)N2CCC(C(=O)Nc3ccccc3N3CCCCC3)CC2)cc1OC	3%	10%	-29%	-27%	x	u	15%	x
CCC(=O)N1c2ccc(S(=O)(=O)CCC(=O)N3CCN(c4ccccc4F)CC3)cc2CC1C (stereo not given)	1%	3%	-5%	x	x	x	-10%	x
Cc1ccc(CNC(=O)C2=NNC(=O)CC2)cc1	-4%	-10%	0%	-3%	4%	14%	25%	3.0%
COc1ccc(N=Cc2c(O)n(-c3cccc(C)n3)c(=O)c3ccccc23)c(OC)c1	2%	5%	-12%	15%	x	11%[14.2 µM]	3%	x
CC12COC3(C(=O)Nc4ccc(Cl)cc4)CC1CCC32C (stereo not given)	-16%	-22%	2%	3%	-8%	1%	0%	-4.2%
O=S(=O)(c1ccc(Cl)cc1)N1CCN(Cc2ccc(O)c3ncccc23)CC1	-4%	x	-16%	u	x	13µM*	u	x
CCN(C(=O)COC(=O)c1ccccc1OCc1ccc(Cl)cc1)C1CCS(=O)(=O)C1 (stereo not given)	-4%	x	0%	-14%	x	17%	4%	x
CC1(C)CN(c2ccc(-c3ccnc4ncnn34)cc2)C1=O	1%	x	17%	7%[46.1 µM]	x	11%[46.1 µM]	-8%	x
CCc1nn(CC(=O)Nc2cccc(C)c2C)c(=O)c2cc3sccc3n12	x	x	-1%	x	-8%	-30%[46.1 µM]	x	-0.8%
CCc1nnc(NC(=O)CCC(=O)N2CCN(C3CCCCC3)CC2)s1	2%	-4%	x	22%	6%	-3%	82%	5.6%
CC1=NN(c2ccccc2)C(=O)/C1=C\c1ccc(Oc2ccc([N+](=O)[O-])cc2[N+](=O)[O-])cc1	-29%	11%	u	u	u	u	-20%	-3.0%
COc1cc(NC(=O)CSc2ncnc3sc4c(c23)CCCC4)c(C(=O)O)cc1OC	1%	0%	3%	11%[46.1 µM]	x	7%[46.1 µM]	-28%	x
COc1ccc(S(=O)(=O)N2CCOCC2)cc1Cl	2%	-1%	x	10%	2%	-2%	-9%	-3.7%
CCN1CCN(C(=O)CCCCCn2c(=O)[nH]c3cc(C(=O)OC)ccc3c2=O)CC1	0%	-7%	-1%	-2%	-9%	-2%	-6%	-1.3%
CCC(=O)Nc1ccc(C(=O)COC(=O)c2sc(C)nc2C)cc1	2%	x	-1%	u	x	3%[46.1 µM]	25%	x
NC(=O)CC(NC(=O)Cc1ccc(Cl)cc1)c1ccc(NC2CCCC2)c([N+](=O)[O-])c1 (stereo not given)	2%	4%	-17%	x	x	x	-22%	x
COc1ccc(S(=O)(=O)c2c(Nc3ccc(C)cc3)sc(C(=O)c3ccc(C)cc3)c2N)cc1	x	x	-3%	u	5µM*	x	x	-0.9%
Cc1c(NC(=O)Nc2cccc(Cl)c2)c(=O)n(-c2ccccc2)n1C	u	-5%	2%	10%	3%	2%	10%	-0.7%
O=C1Oc2ccccc2C(=O)/C1=C/c1ccccc1O	-3%	-2%	28µM*	13%	x	u	-4%	x
COC(=O)CCC(NC(=O)c1cc(C)oc1C)C(=O)OC (stereo not given)	23%	3%	-9%	1%	12%	13%	5%	1.2%
COc1cccc(NC(=O)N2CCN(C(=O)c3nsc4ccccc34)CC2)c1	x	x	18%	17%[46.1 µM]	16%	14%[46.1 µM]	x	-6.9%
COc1ccc(N2CCN(C(=O)c3ccc(COc4ccc([N+](=O)[O-])cc4)o3)CC2)cc1	-10%	3%	28µM*	u	x	u	-6%	x
COc1cc(/C=C/c2cc[n+](C)cc2)ccc1OCC(=O)Nc1ccccc1	-3%	-6%	24%	13%	x	13%	-19%	x
CN(Cc1cnn(C)c1)C(=O)C1CCCCC1C(=O)O (stereo not given)	15%	-14%	-7%	8%	15%	-2%	1%	-1.6%
Cc1ccc(C(=O)c2oc3ccccc3c2N)cc1	-18%	-7%	71%	13%	-5%	u	-22%	-11%
O=C(NCCc1ccc(Cl)cc1)c1ccc(=O)[nH]c1	2%	18%	-1%	4%	x	-1%[46.1 µM]	-7%	x
Cc1cccc(-n2ccnc2SCC(=O)Nc2cccc3ccccc23)c1C	x	x	-29%	-29%[46.1 µM]	-5%	x	x	-4.4%
Cn1c(SCCCC(=O)c2ccccc2)nnc1-c1ccncc1	1%	2%	-10%	-7%	9%	-21%	-13%	-1.5%
CCOc1ccc2nc(NC(=O)Cn3c(C)csc3=O)sc2c1	5%	x	44%[activator]	-8%	x	u	16%	x
C=CCn1nnnc1-c1cc(Cl)cc(Cl)c1	-4%	3%	-2%	16%	x	-2%[46.1 µM]	3%	x
COc1cc(NC(=O)NCCN2CCN(c3ccc(Cl)cc3)CC2)ccc1C	1%	-8%	-21%	7%	-14%	u	20%	-8.6%
CCCCn1c(NCCO)nc2ccccc21	6%	u	-12%	x	-12%	x	-10%	-2.7%
COc1cc(-c2cc(N)n(S(=O)(=O)c3ccc(F)cc3)n2)cc(OC)c1OC	2%	6%	u	x	0%	x	-9%	-3.6%
COc1ccc(P2(=O)Nc3ccccc3N2)cc1	-19%	-83%	0%	-17%	-8%	10%	-29%	10%
CC(=O)N1CCc2c(sc(NC(=O)C3CCN(S(=O)(=O)c4cccs4)CC3)c2C(N)=O)C1	4%	x	-28%	-16%	x	-28%[46.1 µM]	13%	x
O=C(NC(=S)Nc1ccc(S(=O)(=O)Nc2ncccn2)cc1)c1ccc(Br)cc1	1%	1%	3%	15%	x	-19%[46.1 µM]	8%	x
COc1cccc(-c2nnc3sc(-c4ccccn4)nn23)c1	-1%	-73%	32%[activator]	10%	1%	u	1%	-2.3%
CCCc1cc(C(N)=O)c(NC(=O)c2ccoc2C)s1	-19%	-92%	14%	14%	-15%	-21%	-10%	-14%
Cc1ccc(C(=O)N2CCOCC2)cc1S(=O)(=O)N1CCOCC1	-2%	18%	0%	0%	x	-16%	1%	x
Cc1ccccc1OS(=O)(=O)c1cn(C)c(=O)n(C)c1=O	0%	3%	4%	3%	x	7%	1%	x
(list continues)
SMILES	SARS PLP yeast	NS1 inh	StopGo reporter	Lassa entry inh	Cruzain inh noDet	MARV entry inh	RE007 growth inh	Cruzain inh Det
Cc1cc(C)nc(NC(=O)CSc2nn(C)c(=S)s2)n1	5%	-2%	-6%	-24%	2%	11%[46.1 µM]	-19%	-8.3%
O=C(CSc1nc2cc(Cl)ccc2s1)c1cc2ccccc2o1	-12%	-65%	0%	6%	u	-8%	-12%	-6.3%
Cc1ccc(NC(=O)CCNS(=O)(=O)c2ccc3c(c2)oc(=O)n3C)cc1	11%	-1%	-12%	12%	-6%	2%	4%	-2.5%
CCN(CC)C(=S)Nc1ccc([N+](=O)[O-])cc1	8%	1%	56%[activator]	-10%	-8%	u	x	-2.5%
Cc1ccc(NC(=O)c2onc(C)c2Cl)cc1	-9%	-15%	50%[activator]	x	-2%	x	-21%	3.9%
Cc1cccc(N2CCN(c3nc(C)cc(C)c3C#N)CC2C)c1 (stereo not given)	-7%	-44%	u	-20%[46.1 µM]	x	u	4%	x
CSc1nc(C)c(Br)c(N2CC2)n1	x	x	8%	23%[46.1 µM]	x	0%[46.1 µM]	8%	x
CN(Cc1ccccc1NS(=O)(=O)c1ccc2ccccc2c1)C1CCCCC1	-10%	x	-2%	-29%[46.1 µM]	x	u	-17%	x
O=C(Cn1c(=O)oc2ccccc21)NCc1cccc(Cl)c1	x	x	-8%	x	-5%	18%[46.1 µM]	x	-2.1%
COC(=O)c1ccccc1NC(=O)COc1ccc(S(=O)(=O)NC(C)C)cc1	0%	-5%	11%	x	x	x	13%	x
Cc1nc(NCc2ccc3c(c2)OCO3)c2oc3ccccc3c2n1	-25%	-139%	x	6%	-25%	-1%	1%	-8.2%
CC(=O)Nc1ccc(N/C=C/C(=O)C(C)(C)C)cc1	30%	-3%	24%	19%[14.3 µM]	-8%	6%	-5%	3.1%
O=C(NNC(=O)C(O)c1ccccc1)NC1CCCCC1 (stereo not given)	-2%	-6%	13%	0%[46.1 µM]	x	16%[46.1 µM]	12%	x
Cc1nn(-c2ccccc2)c2sc(C(=O)Nc3ccccc3Br)cc12	x	x	-14%	-29%[46.1 µM]	u	u	x	-6.1%
COc1cccc(NC(=O)C2CCN(c3nnc(-n4c(C)ccc4C)s3)CC2)c1	x	x	-21%	8%[46.1 µM]	2%	11%[46.1 µM]	x	-2.6%
CCNC(=O)CCc1nc(-c2ccc(C(C)(C)C)cc2)no1	-6%	-41%	-7%	11µM*	5%	8.9µM*	-14%	-3.3%

Assay outcomes: PubChem BioAssay, National Center for Advancing Translational Sciences (NCATS)
